Compound activity: PubChem BioAssay, several laboratories
CSC inhib – cancer stem cell viability inhibitors, primary screen, luminescence; AID 2717, 2010; cancer stem cell-like cells viability; hit rate 1.1% among 300,000; inhibition, % at 7.5 µM;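 active means mean at 75% or more and at least half the replicates too; tested in HMLE shEcad cells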;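 further: 0% = median of negative and 100% = median of positive control wells; the first replicate is given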
eIF4H FP inh – human eIF4H binding inhibitors, primary screen, translation initiation inhibitor project, biochemical, uHTS, fluorescence polarization | Eukaryotic translation initiation factor 4H (Homo sapiens), Q15056 | eIF4H fluorescence polarization binding assay | inhibition, % at 35 µM | hit rate 0.94% among 290,000 | AID 2012, 2009;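 active means 50% or more with normal probe brightness, or confirmed in later tests; about a fifth of its hits are not listed in these tables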;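 further: calls also rest on retests at 20 µM and on dose response follow-up; 0% = protein and probe with vehicle and 100% = probe without protein; strong numbers were not always called active; many hits fall short of the cut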
PABP polyA inh – PABP poly(A) RNA binding inhibitors, primary screen, biochemical, fluorescence polarization, uHTS | Polyadenylate-binding protein 1 (Homo sapiens), P11940 | inhibition, % at 35 µM | hit rate 1% among 290,000 | AID 2014, 2009;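 active means 50% or more with normal probe brightness, or confirmed in later tests; about a fifth of its hits are not listed in these tables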;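 further: calls also rest on retests at 20 µM and on dose response follow-up; controls were probe without protein and protein plus probe with vehicle; some compounds called inactive have numbers as strong as hits; many hits fall short of the cut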
Target sequence (P11940 whole entry, looked up): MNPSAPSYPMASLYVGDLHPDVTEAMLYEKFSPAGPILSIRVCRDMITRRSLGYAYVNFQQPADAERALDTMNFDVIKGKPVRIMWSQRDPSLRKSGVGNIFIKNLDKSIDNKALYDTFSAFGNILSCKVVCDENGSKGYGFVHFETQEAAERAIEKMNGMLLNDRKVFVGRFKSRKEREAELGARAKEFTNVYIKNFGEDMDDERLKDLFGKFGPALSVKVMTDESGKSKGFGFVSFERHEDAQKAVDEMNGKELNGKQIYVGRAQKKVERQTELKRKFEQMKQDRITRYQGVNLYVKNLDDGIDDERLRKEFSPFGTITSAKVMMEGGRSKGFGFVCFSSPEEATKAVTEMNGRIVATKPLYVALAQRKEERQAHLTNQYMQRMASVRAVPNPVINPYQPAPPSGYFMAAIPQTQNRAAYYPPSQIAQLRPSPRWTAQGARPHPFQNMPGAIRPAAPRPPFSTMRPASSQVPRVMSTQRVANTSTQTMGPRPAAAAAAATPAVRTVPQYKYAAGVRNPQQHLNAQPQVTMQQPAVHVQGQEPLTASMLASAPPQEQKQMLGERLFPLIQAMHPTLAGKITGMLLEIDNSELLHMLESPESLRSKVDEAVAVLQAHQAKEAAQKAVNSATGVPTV
UUG fidelity – modulators of yeast start codon fidelity, primary screen, whole organism, S. cerevisiae, single point, plate reader; S. cerevisiae UUG-firefly luciferase reporter, luminescence/redox ratio; activity score, % at 18.7 µM; hit rate 0.13% among 350,000;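 active means replicate mean at a twofold rise or more, about +100% in these data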;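 further: firefly luciferase made from a UUG start codon reports start codon fidelity; reporter light over untreated wells divided by growth signal over untreated wells; some hits fall short of that in this replicate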
HIV Env fusion – inhibitors of HIV-1 Env-driven cell-cell fusion, primary screen, HeLa-JRFL effector, CEM21 target cells, luciferase | inhibition, % at 12.3 µM | hit rate 1.1% among 360,000 | AID 651610, 2012;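 active means mean replicate inhibition score of at least 50 and every replicate individually at or above 50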;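 further: 0% = plate neutral controls and 100% = maraviroc near 300 nM; one replicate is shown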
Rce1 inhib – yeast Rce1p protease inhibitors, primary screen, biochemical, fluorescence, cell-free homogeneous. yeast membranes, quenched prenylated peptide cleavage fluorescence. calls only. hit rate 0.27% among 290,000;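 active means fall in fluorescence gain of 50% or more versus controls, with final raw signal at or below 3038400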;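 further: plate controls were neutral control wells for no effect and wells lacking membranes for full effect; tested at 10 µM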
Target sequence (Q03530 whole entry, looked up): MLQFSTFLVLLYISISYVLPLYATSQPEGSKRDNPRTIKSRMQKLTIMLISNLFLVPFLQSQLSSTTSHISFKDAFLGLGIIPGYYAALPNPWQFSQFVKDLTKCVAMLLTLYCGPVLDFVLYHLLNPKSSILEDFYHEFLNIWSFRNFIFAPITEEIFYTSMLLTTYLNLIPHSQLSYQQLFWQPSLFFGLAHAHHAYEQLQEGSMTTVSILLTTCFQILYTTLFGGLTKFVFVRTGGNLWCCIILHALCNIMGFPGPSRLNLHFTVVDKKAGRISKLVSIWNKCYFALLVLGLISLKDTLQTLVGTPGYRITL
MT1-MMP act inh – blockers of MT1-MMP proenzyme processing, primary screen, HT1080 RFP-PRO-GFP cells, GFP/RFP fluorescence. Matrix metalloproteinase-14 (Homo sapiens), P50281. GFP/RFP ratio change, % at 20 µM. hit rate 0.061% among 360,000. GFP/RFP ratio fluorescence, overnight; percent of plate control window, DMSO zero. AID 651647, 2012;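 active means GFP/RFP ratio change of at least 30% with cell ATP level not reduced by more than half and red fluorescence within 50% of control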; further: strong numbers were not always called active
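Test system: HT1080 cells expressing an RFP-PRO-GFP fluorescent reporter construct / Compound dosing: single-point 20 µM compound, 1% DMSO / Schedule: cells overnight before dosing, compound overnight, 37 °C, 5% CO2 / Evaluation: GFP/RFP fluorescence ratio / Control set: DMSO and RFP-L50D-GFP cell wells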
eIF4H FP inh retest – recorded beside eIF4H FP inh, whose call it bears; inhibition, %; compound at 20 µM; confirmation average;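 mean of two retest wells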
PABP polyA inh retest – recorded beside PABP polyA inh, whose call it bears; inhibition, %; compound at 20 µM; confirmation repeats;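 mean of two retest wells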
MT1-MMP act inh RFP – second read-out of MT1-MMP act inh, no call of its own (marks repeat the call); RFP signal change, %; measured here: RFP expression control read;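 0 = vehicle wells; hits needed this value within 50% of zero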
Active calls of the source: *; i = inactive; · = no result given; & = joins results of further samples. These rows are one share of the data (hit frequency here may not be typical).

SMILES | CSC inhib | eIF4H FP inh | PABP polyA inh | UUG fidelity | HIV Env fusion | Rce1 inhib | MT1-MMP act inh | MT1-MMP act inh RFP | others
O=C(O)c1cccc(COCC(F)(F)C(F)F)c1 | -8 | -10 | 1 | -6 | -91 | i | 2 | 0
COCC1CCCCN1Cc1cn[nH]c1-c1ccc2cc(OC)ccc2c1 (centres undefined) | -6 | -12 | -11 | -2 | -8 | · | -3 | 1
CCOC(=O)[C@H]1[C@H]2COc3ccc(Br)cc3[C@@H]2N2C(=O)CN(Cc3ccc(F)cc3)C(=O)[C@@]12C | 12 | · | · | -5 | 10 | · | -1 | -4
COCCCNC(=S)N1CCN(c2ccccc2)CC1 | -16 | -2 | 4 | · | -14 | i | 4 | 0
COCCNC(=O)C(c1ccc(F)cc1)N(Cc1ccccc1)C(=O)CCC(=O)Nc1nccs1 (centres undefined) | -13 | -6 | 1 | -2 | -1 | i | -1 | 1
COc1ccc2oc(=O)c(C(=O)N3CCN(c4ccccc4)CC3)cc2c1 | 2 | -5 | 4 | -12 | · | i | -2 | 1
O=C1c2ccccc2S(=O)(=O)N1CC1CC(c2ccccc2)=NO1 (centres undefined) | -14 | -9 | -8 | -13 | · | i | -1 | -4
Cc1ccc(NC(=O)CN2C(=O)CSC2=O)cc1 | -17 | -5 | -4 | -14 | · | i | 10 | 5
NC(=O)c1sc2nc(-c3cccnc3)ccc2c1N | 0 | -10 | 11 | -21 | 32 | i | -5 | 3
CC(C)CCNC(=O)CN(C(=O)Cn1nnc(-c2ccccc2F)n1)c1cccc2c1CCCC2 | -3 | -11 | -8 | 23 | -98 | i | -3 | -1
Cc1ccc(/C=C2\S/C(=N/S(=O)(=O)c3cccs3)NC2=O)cc1 | 35 | -5 | 54 | · | -10 | i | 1 | 5 | eIF4H FP inh retest=2;PABP polyA inh retest=22
COc1ccc(-c2nnc3n(CCc4ccccc4)c(=O)c4ccccc4n23)cc1OC | 4 | 2 | 0 | · | 9 | i | 1 | -6
Cc1cccc(NC(=O)c2ccco2)c1C(=O)O | -13 | -2 | 20 | -14 | 2 | i | 0 | 3
COC(=O)c1ccsc1NC(=O)CSc1nnnn1-c1ccccc1SC | -2 | -3 | -9 | -10 | 10 | i | -7 | -6
CC(=O)Nc1ccc(S(=O)(=O)NNC(=O)c2cccc([N+](=O)[O-])c2)cc1 | -7 | -2 | -1 | -11 | -2 | i | 1 | 0
CC(C)(C)C(=O)NC(=S)NNC(=O)c1ccc(-c2ccccc2)cc1 | 91* | 18 | -14 | -41 | · | i | -10 | -29
COc1ccccc1C(=O)COC(=O)C(CCSC)NC(=O)COc1ccccc1 (centres undefined) | -8 | · | · | -2 | · | i | -3 | 1
CCCCCCC(=O)Nc1nc(C)c(-c2csc(Nc3cc(OC)ccc3OC)n2)s1 | 2 | 1 | -3 | -12 | -26 | i | 5 | 1
COc1ccc(-n2c(SCC(=O)C(C)(C)C)nc3ccsc3c2=O)cc1 | -1 | -12 | 4 | -3 | 7 | · | -8 | -8
Nc1c(Cl)ncnc1NCCO | -3 | -3&-11 | -5&1 | -7 | 9 | i | 5 | 7
C/C(=N\NC(=O)c1c(Cl)c(C)nn1C)c1cccc(NC(=O)C2CCCC2)c1 | -8 | 0 | -8 | 5 | -4 | · | 1 | -2
O=C1CC(c2ccco2)Cc2c1cnn2-c1nc2ccccc2s1 (centres undefined) | -20 | 1 | -4 | · | 4 | i | 7 | -5
Cc1ccc(CSc2ncnc3c2cnn3-c2ccc(C)cc2)cc1 | -3 | 1 | -6 | · | -91 | i | 4 | 2
CCn1c(SCC(=O)Nc2ccc(OC)c(OC)c2)nc2c(c1=O)SCC2 | -9 | -2 | -10 | 12 | 10 | i | 1 | 0
O=S(=O)(NCc1ccccc1)c1cnc[nH]1 | 2 | -4 | 5 | -8 | · | i | 4 | -2
Oc1ccccc1C1=NOC(O)(C(F)F)C1 (centres undefined) | -6 | 17 | 4 | -4 | -60 | i | 0 | 2
O=C(CCc1ccccc1)N=C1SC2CS(=O)(=O)CC2N1c1cccc(F)c1 (centres undefined) | 1 | -6 | 1 | -13 | 4 | i | -10 | -3
Cc1ccc2nc(C(C)(C)C)c(Cc3ccsc3)n2c1 | · | · | · | 153* | 19 | · | 2 | 4
CN(C(=O)COC(=O)c1cc2c(s1)CCCCC2)c1ccccc1 | -2 | · | · | -6 | 3 | i | 2 | 2
CC1Cc2cccc3c(O)c(C(=O)c4nn[nH]n4)c(=O)n1c23 (centres undefined) | -7 | -4 | -14 | · | -8 | i | 2 | 4
O=[N+]([O-])c1ccc(-n2cnc3ccccc32)c([N+](=O)[O-])c1 | -6 | 8 | 4 | · | 26 | i | -10 | -4
Cn1c(=O)[nH]c(=O)c2c1nc1n2CCN1Cc1ccccc1 | -6 | 1 | 0 | -8 | -24 | i | 11 | 3
Cc1cc(NC(=O)c2ccccc2)no1 | -14 | -4 | -4 | 7 | -4 | i | -2 | 5
COc1ccc(Cl)cc1C(=O)OCC(=O)N(C)CC(=O)Nc1ccc(F)cc1 | -11 | · | · | -3 | -346 | i | 2 | 2
O=C(COc1ccc2c(c1)OCO2)Nc1cccc(F)c1 | · | -15 | -2 | · | -70 | i | 2 | 5
Cc1[nH]n2c(=O)c3c(nc2c1-c1ccc(Cl)cc1)CCC3 | -26 | -1 | -5 | 0 | · | i | 13 | -7
N#Cc1c[nH]n2c(=O)cc(Cc3ccccc3)nc12 | -7 | -9 | 1 | -14 | · | i | 4 | 5
CCC1CCCCN1C(=O)CSc1nc2c(c(=O)n1C)SC(C)C2 (centres undefined) | -1 | -4 | -9 | -15 | 2 | i | 1 | -5
CCCCn1cc(S(=O)(=O)c2ccccc2)c(=O)c2cc(C)ccc21 | -4 | -4 | 6 | -19 | 20 | i | -4 | -3
O=S(=O)(NCC(c1cccnc1)N1CCN(c2ccccc2)CC1)c1cccs1 (centres undefined) | 2 | -3 | 7 | · | · | i | -3 | -1
CC1CC(OCC(O)CN2CCCCC2C)CC(C)(C)C1 (centres undefined) | 38 | -2 | -2 | -24 | 17 | i | -5 | 1
O=C(O)C1CCCCC1C(=O)NCc1ccccn1 (centres undefined) | -1 | 0 | -3 | · | -30 | i | 2 | 7
CCC(Oc1ccccc1)C(=O)NC1C(=O)N2C1SC(C)(C)C2C(=O)O (centres undefined) | 2 | 0 | -1 | · | -1 | i | -4 | -4
CCc1ccc(C2(C)SC(NC(C)=O)=NN2C(C)=O)cc1 (centres undefined) | -6 | -3 | 3 | -6 | -7 | i | 7 | 7
O=S(=O)(O)c1nc2ccccc2[nH]1 | 0 | 4 | 2 | -8 | 4 | i | 2 | 0
CCOCc1nnc(NC(=O)C2CC(=O)N(C3CCCC3)C2)s1 (centres undefined) | -12 | 4 | 9 | -8 | 2 | i | -1 | 1
COc1ccc(CCNC(=O)c2cc(S(=O)(=O)N3CCc4ccccc43)ccc2F)cc1OC | · | · | · | -2 | -8 | · | -4 | -4
CCCCNC(=O)N(c1c(N)n(Cc2ccccc2)c(=O)[nH]c1=O)C1CCCC1 | 5 | 1 | -2 | · | 7 | i | 1 | 4
Clc1ccc(-c2nnc(SCc3nc4ccccc4[nH]3)o2)c(Cl)c1 | -3 | 7 | 5 | -11 | · | i | -8 | -21
COc1cc(C)ccc1N(CCCN1C(=O)c2cccc3cccc(c23)C1=O)C(=O)c1cccs1 | 22 | 13 | 4 | -13 | 25 | i | -14 | -12
Cc1cc2c3c(c1)C1(C(=O)N3C(C)(C)CC2C)C(C#N)=C(N)OC2=C1C(=O)CC(C)(C)C2 (centres undefined) | -2 | 9 | 6 | -4 | · | i | -1 | 1
CN(CCCC(=O)Nc1ccccc1F)S(=O)(=O)c1ccc(F)cc1 | -11 | -4 | 7 | 3 | 15 | i | 6 | 2
O=C(O)CC1COc2ccccc2N1C(=O)c1ccccc1Cl (centres undefined) | -6 | -15 | -22 | -13 | 14 | i | 1 | 4
CCOc1ccccc1OCCn1nc2ccccc2n1 | -30 | -9 | 25 | -10 | -10 | i | 0 | -7
COc1ccc(-c2nnc(-c3ccc(Br)o3)o2)cc1OC | -7 | 5 | 11 | 1 | -119 | i | 2 | 0
Cc1[nH]n2c(=O)c3c(nc2c1-c1ccccc1)CCCC3 | -6 | -2 | -4 | -20 | -79 | i | 3 | -2
CCN(CC)C(=O)c1ccc(Cc2cn(C)c3ccccc23)nc1 | · | · | · | 14 | 13 | · | 1 | -1
COc1ccc(CCNC(=O)Nc2ccc3nc([C@@H]4O[C@H](CO)[C@@H](O)[C@H](O)[C@H]4O)[nH]c3c2)cc1Br | · | · | · | -15 | 16 | · | 8 | 6
COCCOC(=O)C1=C(C)NC(=O)NC1c1cn(-c2ccccc2)nc1-c1cccs1 (centres undefined) | 8 | -14 | 6 | 5 | · | i | 3 | 5
CCCCC#Cc1cncc(C(=O)NN)c1 | 4 | 6 | 3 | · | -17 | i | -7 | 5
(more compounds)
SMILES | CSC inhib | eIF4H FP inh | PABP polyA inh | UUG fidelity | HIV Env fusion | Rce1 inhib | MT1-MMP act inh | MT1-MMP act inh RFP | others
O=C(NCc1ccc(F)cc1)c1cc(C2CCCCN2C(=O)c2ccc3c(c2)CCO3)on1 (centres undefined) | · | · | · | -6 | 7 | · | 4 | -4
CCN1C(=NCc2ccc(OC)cc2)N[C@@H](c2ccccc2)[C@H](C(=O)OC)[C@H]1C | -9 | · | · | -5 | -10 | · | 2 | 3
COc1cc(NS(=O)(=O)c2ccc(NC(=S)NC(=O)c3sc4cc(F)ccc4c3Cl)cc2)nc(OC)n1 | 1 | 2 | -8 | -10 | · | i | -3 | -1
CC1Cc2cc(/C=C3/SC(N4CCC(C(N)=O)CC4)=NC3=O)ccc2O1 (centres undefined) | 19 | 0 | -6 | 2 | -10 | i | -5 | -10
Cc1cccc(N2CCN(C(=O)Cn3cccc3)CC2)c1C | -13 | 6 | 0 | -23 | 14 | i | 7 | 1
NC(=S)N/N=C/c1ccccc1 | 0 | -3 | -8 | · | -49 | i | 0 | 5
Cc1ccc(SCCC(=O)NC(C)C)cc1 | -16 | 0 | -3 | -17 | -48 | · | 4 | 5
COc1ccccc1Nc1nc(NCc2ccco2)nc(N)c1[N+](=O)[O-] | 11 | -9 | 6 | -9 | 1 | i | -7 | -8

5 compounds out of the list, arranged by molecular weight, highest first:
SMILES | CSC inhib | eIF4H FP inh | PABP polyA inh | UUG fidelity | HIV Env fusion | Rce1 inhib | MT1-MMP act inh | MT1-MMP act inh RFP | others
COc1cc(NS(=O)(=O)c2ccc(NC(=S)NC(=O)c3sc4cc(F)ccc4c3Cl)cc2)nc(OC)n1 | 1 | 2 | -8 | -10 | · | i | -3 | -1
CC1Cc2cc(/C=C3/SC(N4CCC(C(N)=O)CC4)=NC3=O)ccc2O1 (centres undefined) | 19 | 0 | -6 | 2 | -10 | i | -5 | -10
COc1ccccc1Nc1nc(NCc2ccco2)nc(N)c1[N+](=O)[O-] | 11 | -9 | 6 | -9 | 1 | i | -7 | -8
Cc1cccc(N2CCN(C(=O)Cn3cccc3)CC2)c1C | -13 | 6 | 0 | -23 | 14 | i | 7 | 1
NC(=S)N/N=C/c1ccccc1 | 0 | -3 | -8 | · | -49 | i | 0 | 5
